MT1-MMP act inh – inhibitors of human MT1-MMP activation. P50281. HT1080 RFP-PRO-GFP cells, GFP/RFP ratio fluorescence, overnight; percent of plate control window, DMSO zero. GFP/RFP ratio change, % at 20 µM. 360,000 compounds, 0.061% hits;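 active = GFP/RFP ratio change of at least 30% with cell ATP level not reduced by more than half and red fluorescence within 50% of control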; note: strong numbers were not always called active
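Assay system: HT1080 RFP-PRO-GFP cells. Benchmarks: DMSO vehicle wells and RFP-L50D-GFP reporter cell wells. Times: overnight cell settling, then overnight compound exposure, 37 °C, 5% CO2. Compound: 20 µM single dose, 1% DMSO. Read-out basis: GFP/RFP fluorescence ratio.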
Env fusion inh – inhibitors of HIV Env-mediated cell fusion; HeLa-JRFL Env/CEM21 cell fusion, luciferase; inhibition, % at 12.3 µM; 360,000 compounds, 1.1% hits; AID 651610;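 active = mean replicate inhibition score of at least 50 and every replicate individually at or above 50; inconclusive = only one of the two criteria met; inactive = mean below 50 and not all replicates reaching 50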;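 note: 0% = plate neutral controls and 100% = maraviroc near 300 nM; one replicate is shown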
MT1-MMP act inh RFP – recorded beside MT1-MMP act inh, whose call it bears; RFP signal change, %; measured here: RFP expression control read;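 0 = vehicle wells; hits needed this value within 50% of zero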
* hit, by the source's call; ? = inconclusive.

Structure | MT1-MMP act inh | MT1-MMP act inh RFP | Env fusion inh
CN1CCN(CCCNc2nc3ccccc3c3nc(-c4ccccc4)nn23)CC1 | 2 | 0 | -10
COc1ccc(C(=O)C(=O)N2CCC(c3ccccc3)CC2)cn1 | -1 | 0 | -1
CC1(C(=O)NS(=O)(=O)c2ccc(Cl)cc2)CCN1C(=O)C/C=C/c1ccccc1 (configuration not stated) | 3 | 5 | -3
COc1ccc(C(=O)NCCNc2nc3cc(C)cc(C)c3cc2C#N)cc1 | 2 | 11 | 19
CCOC(=O)[C@]12CCCC=C1N(CCC1=CCCCC1)C(=O)[C@H](CC(=O)NCC13CC4CC(CC(C4)C1)C3)C2 | -22 | -23 | 8
O=C(NC1CCCCC1)C(c1ccncc1)n1c(=O)c(-c2ccccc2)nc2ccccc21 (configuration not stated) | -5 | -6 | -3
Cc1nc(CN2CCCCC2)c(O)c(=O)[nH]1 | -2 | 2 | 4
CCCC(=O)Nc1ccc(C(=O)COC(=O)C2=COCCO2)cc1 | 1 | -1 | -12
S=C(NN=C(c1ccccc1)c1ccccn1)N(Cc1ccccn1)Cc1ccccn1 | -4 | -5 | 76*
COc1ccc(NC(=O)C(c2ccc(OC)cc2)n2c(=O)c(-c3cc4ccccc4[nH]3)nc3ccccc32)cc1 (configuration not stated) | -3 | -1 | -48
CCOC(=O)C1=CCC(c2cc3ccc(OC)cc3n2C(=O)OC(C)(C)C)NC1 (configuration not stated) | 6 | 5 | -4
CCCCCCN1CCN(C2CN(Cc3cn(Cc4cccc(C(F)(F)F)c4)nn3)S(=O)(=O)C2)CC1 (configuration not stated) | 0 | -1 | 11

New compounds follow.
Structure | MT1-MMP act inh | MT1-MMP act inh RFP | Env fusion inh
Cc1ccc(F)c(S(=O)(=O)NC(=O)C2(C)CCN2C(=O)c2ccc(C3CCCCC3)cc2)c1 (configuration not stated) | 6 | 3 | -18
Cc1c(Cl)cccc1NC(=S)C(=C([O-])c1ccc(Cl)s1)[n+]1ccccc1 | 0 | 5 | -9
CC1Cn2c(Cc3ccccc3)nnc2S1 (configuration not stated) | -1 | 7 | -17
CCOc1ccc(CCN2C(=O)C(=O)N([C@@H](Cc3ccccc3)CN3CCC[C@H]3CN3C(=O)C(=O)NC[C@@H]3Cc3ccc(O)cc3)C[C@@H]2CC(C)C)cc1 | 2 | -2 | -19
COc1ccc(C=C2OC(=O)C(C(C)=O)=C2O)cc1 | -5 | 6 | -49
C[n+]1c(-c2ccccc2)cc2c(=Cc3ccccc3)c3ccccc3n21 | 69 | 53 | 46
COc1ccc([C@H]2CC(=O)C[C@@H](CCn3cccn3)O2)cc1 | 3 | 3 | -16
O=C1O[C@@H](c2ccccc2)C[C@@H](O)[C@H](O)CCCc2ccccc21 | 1 | 4 | 38
C[C@H]1COc2cccc(N3CCC[C@H]3CO)c2S(=O)(=O)N1 | 3 | 4 | 15
C[C@H](NC(=O)[C@@H]1CCCN1C(=O)[C@@H]1CCCN1)c1ccccc1 | 38 | 51 | 10
O=C1C(=C(c2ccccc2)N2CCOCC2)Cc2ccccc21 | 14 | -25 | -465
CC(C(=O)NC(C)(C)C)n1c(-c2ccccc2)nc2ccccc21 (configuration not stated) | 4 | 4 | -5

(cont.)
Structure | MT1-MMP act inh | MT1-MMP act inh RFP | Env fusion inh
COc1ccc(NC(=O)COc2ccccc2Cc2ccccc2)cc1S(=O)(=O)N1CCOCC1 | -11 | -8 | 11
O=C(O)CN=C(Nc1cc(Cl)cc(Cl)c1)NC(c1ccccc1)c1ccccc1 | -2 | -4 | 2
Cc1cc2nc(-c3ccco3)c(Cc3cccc(Cl)c3)n2c(C)c1Br | 2 | 1 | 3
CC(C(=O)NC(C)(C)C)n1c(C(c2ccccc2)c2ccccc2)nc2ccccc21 (configuration not stated) | -3 | -4 | 87*
COc1ccc(CCC(=O)N2c3ccccc3N=C(c3ccc(C(F)(F)F)cc3)C2C(=O)NC2CCCC2)cc1 (configuration not stated) | -20 | -24 | 22
Cc1ccc(S(=O)(=O)NCCC(=O)Nc2cccc(S(=O)(=O)N3CCCC3)c2)cc1C | -1 | -4 | 17
COCCN(C(=O)COC(=O)c1ccc(Br)o1)c1c(N)n(Cc2ccccc2)c(=O)[nH]c1=O | -1 | 13 | -13
CCCCn1nnnc1C(c1cc2ccccc2o1)N1CCCN(C(=O)OC(C)(C)C)CC1 (configuration not stated) | -22 | -22 | -1
COc1cccc(C(O)c2ncc(-c3ccc(C(F)(F)F)cc3)[nH]2)c1 (configuration not stated) | 3 | -5 | -10
CC1CC(C)(C)OC(c2ccc(C(C)C)cc2)O1 (configuration not stated) | 1 | 1 | -6
CCOC(=O)[C@]12CCCC=C1N(Cc1ccccc1)C(=O)[C@H](CC(=O)N1CCCC1)C2 | 4 | 2 | -14
O=C(NOCc1cscn1)Nc1ccccc1 | 0 | 0 | 12

Other results
Structure | MT1-MMP act inh | MT1-MMP act inh RFP | Env fusion inh
COC(=O)[C@@]12C[C@@H](CC(=O)N3CCCC3)C(=O)N(Cc3ccc4c(c3)OCO4)C1=CCC(C)(C)C2 | 2 | -1 | 2
CCc1nc2c(OCc3cc(Cl)cc(Cl)c3)cccn2c1N(C)C(=O)c1ccc(C)cc1 | -2 | -1 | ?
CNc1ncnc2c1ncn2[C@H]1CN(CCN2CCOCC2)C[C@@H](CO)O1 | 2 | 8 | -4
O=C1NC[C@@H](CCCCN2C[C@H](Cc3ccc(O)cc3)N(CCc3ccc(O)cc3)C(=O)C2=O)N(CCc2ccc(O)cc2)C1=O | 6 | 4 | -177
CC(CN1CCCCC1)NC(=O)c1scnc1-c1ccccc1 (configuration not stated) | 3 | 4 | -9
Nc1c(Br)cc(Br)c2c1[nH]c(=O)c1ccccc12 | 1 | 4 | 17
CCOC(=O)[C@]12CCC=C1N(Cc1ccco1)C(=O)[C@H](CC(=O)NCc1cccc(C(F)(F)F)c1)C2 | 0 | 2 | 18
Cc1cc(Br)cn2c(Cc3ccccc3C(F)(F)F)c(-c3ccc(Cl)cc3)nc12 | 0 | -3 | 31
O=C1c2ccccc2[C@@H]2Cc3csc[n+]3[C@H]12 | 1 | 4 | 2
CC(Sc1nnc(C2CC2)n1C)C(=O)Nc1ccc(N2CCOCC2)cc1 (configuration not stated) | -2 | 1 | 9
CCOC(=O)[C@]12CCCC=C1N(Cc1cccc3ccccc13)C(=O)[C@H](CC(=O)N1CCOCC1)C2 | -3 | -4 | -64
CC(C)NC(=O)N(C)C[C@H]1OCCCC[C@@H](C)Oc2ccc(NC(=O)C3CCCCC3)cc2C(=O)N([C@H](C)CO)C[C@@H]1C | 4 | 5 | 9

(continued)
Structure | MT1-MMP act inh | MT1-MMP act inh RFP | Env fusion inh
CCOC(=O)[C@]12CCCC=C1N(Cc1ccccc1)C(=O)[C@H](CC(=O)N1CCN(C(=O)c3ccco3)CC1)C2 | 7 | 6 | -5
O=C(CSc1nnc2ccc(-c3ccccn3)nn12)N1CCCC1 | 0 | 0 | 11
Cc1ccccc1-n1nnnc1SCC(=O)c1c(N)n(C2CC2)c(=O)[nH]c1=O | -3 | 0 | -27
O=C(Nc1ccc2c(c1)OCCO2)C(c1ccccc1F)n1c(=O)c(-c2ccco2)nc2ccccc21 (configuration not stated) | -6 | 1 | 0
CCOC(=O)[C@]12CCCC=C1N(CCC1=CCCCC1)C(=O)[C@H](CC(=O)N1CCOCC1)C2 | 0 | 1 | ?
CC(C)(C)N1C(=O)c2ccccc2NC(=O)C1C(=O)NCCc1ccccc1F (configuration not stated) | 2 | 4 | -18
CCC1(CC)CNC(=O)NC1=O | 1 | 1 | -3
CC(C)(C)NC(=O)C(c1cccc2ccccc12)n1c(=O)c(-c2cc3ccccc3[nH]2)nc2ccccc21 (configuration not stated) | -11 | -14 | 21
CN(C)C1CN(Cc2cn(Cc3ccc(Cl)cc3)nn2)S(=O)(=O)C1 (configuration not stated) | 7 | 7 | -1
CCOC(=O)[C@]12CCC=C1N(CCC1=CCCCC1)C(=O)[C@H](CC(=O)N1CCN(C(=O)c3ccco3)CC1)C2 | 5 | 4 | -18
O=C(NCc1ccccc1)C(c1ccc(F)cc1)N1CCN(c2ccccc2F)CC1 (configuration not stated) | -3 | -5 | -41
CSC(=NS(=O)(=O)c1ccc(N)cc1)NS(=O)(=O)c1cccs1 | 1 | 2 | 2

Continuation.
Structure | MT1-MMP act inh | MT1-MMP act inh RFP | Env fusion inh
CCCCN1C(=O)C(CC(=O)NCCN2CCOCC2)CC(C(=O)N2CCOCC2)=C1C (configuration not stated) | 2 | 4 | 22
CC(C)C(C(=O)NC1CCCC1)N1CCN(c2ncccc2C#N)CC1 (configuration not stated) | -7 | 4 | -19
O=C(Nc1ccc2c(c1)OCCO2)C1c2ccccc2OCC(=O)N1Cc1ccc2c(c1)OCO2 (configuration not stated) | 0 | 5 | 11
CCOC(=O)[C@]12CCC=C1N(Cc1ccc3c(c1)OCO3)C(=O)[C@H](CC(=O)N1CCCC1)C2 | 0 | -1 | -7
COC(=O)C1(C(=O)OC)c2ccccc2CN(S(=O)(=O)c2ccc(C)cc2)C1CC(C)=O (configuration not stated) | 9 | 9 | 4
Nc1[nH]c(C(=O)c2ccccc2)c(-c2ccncc2)c1C(=O)NCc1cccc2ccccc12 | 2 | -1 | -127
Cc1nc2ccccc2n1C(C)c1nc2ccccc2n1CC(=O)c1ccc(OC(F)(F)F)cc1 (configuration not stated) | 2 | 4 | -40
COc1ccc(Cn2cc(CN3CC(N(C)C)CS3(=O)=O)nn2)cc1 (configuration not stated) | 6 | 6 | -18
CCCCc1c(-c2ccccc2OC)ncn1CCc1ccccc1OC | -4 | -36 | 31
C=C1C(=O)c2sccc2C(c2ccc(OC)c(OC)c2)C1COC(C)=O (configuration not stated) | 26 | -29 | -51
CCOC(=O)C1CCCN(C(=O)c2cc(-c3ccco3)nc3ccccc23)C1 (configuration not stated) | -7 | 8 | 14
O=C(/C=C/C(Cl)(Cl)Cl)Nc1ccc(Cl)cc1 | -13 | -25 | -5

Some of the entries above in a different format:
MT1-MMP act inh | MT1-MMP act inh RFP | Env fusion inh | SMILES
9 | 9 | 4 | COC(=O)C1(C(=O)OC)c2ccccc2CN(S(=O)(=O)c2ccc(C)cc2)C1CC(C)=O (configuration not stated)
2 | -1 | -127 | Nc1[nH]c(C(=O)c2ccccc2)c(-c2ccncc2)c1C(=O)NCc1cccc2ccccc12
2 | 4 | -40 | Cc1nc2ccccc2n1C(C)c1nc2ccccc2n1CC(=O)c1ccc(OC(F)(F)F)cc1 (configuration not stated)
6 | 6 | -18 | COc1ccc(Cn2cc(CN3CC(N(C)C)CS3(=O)=O)nn2)cc1 (configuration not stated)
-4 | -36 | 31 | CCCCc1c(-c2ccccc2OC)ncn1CCc1ccccc1OC
26 | -29 | -51 | C=C1C(=O)c2sccc2C(c2ccc(OC)c(OC)c2)C1COC(C)=O (configuration not stated)

Next part
Structure | MT1-MMP act inh | MT1-MMP act inh RFP | Env fusion inh
CN(CCO)c1ccc2c(c1)OC[C@@H](Cc1ccccc1)NS2(=O)=O | 1 | 3 | -29
COC(=O)[C@@]1(C(C)C)N=C(c2cc(OC)c(OC)c(OC)c2)[C@]2(O1)C(=O)N(C)c1ccc(Br)cc12 | -2 | -3 | 8
CC(C)NC(=O)C1(C)CSCC(=O)N1CCCn1ccnc1 (configuration not stated) | 12 | 5 | -3
CC(Oc1nc2c(c(=O)n(C)c(=O)n2C)n1C)C1CCCCC1 (configuration not stated) | 1 | -5 | 9
CCOC(=O)[C@]12CCC=C1N(Cc1ccccc1)C(=O)[C@H](CC(=O)NCCC(C)C)C2 | 3 | 2 | -3
COC(=O)[C@@]1(Cc2ccc(F)cc2)[C@H]2c3cc(C(=O)N4CCCC4)n(Cc4cc(C)n(C)n4)c3C[C@H]2CN1C(=O)c1ccccc1 | 0 | -2 | -49
CCCCCCCCN1C(=O)[C@H](CC(=O)N2CCOCC2)C[C@@]2(C(=O)OC)CCCCC=C12 | 0 | -3 | -20
O=C1c2cccc3c2C2(O)c4c1cccc4C(=O)c1cccc(c12)C3=O | -6 | 4 | -9
C=CCn1c(SCCN2C(=O)c3ccccc3C2=O)nc2scc(-c3ccc(F)cc3)c2c1=O | 1 | 4 | 30
COc1ccccc1N1CCN(C2C(=O)Nc3ccccc3-n3nnnc32)CC1 (configuration not stated) | 0 | 2 | 19
CCCCNC(=O)C[C@@H]1C[C@@]2(C(=O)OC)CCCCC=C2N(Cc2cccc3ccccc23)C1=O | -13 | -7 | 24
C[C@H](NS(=O)(=O)c1ccccc1)C(=O)N1CCN(C(c2ccccc2)c2ccccc2)CC1 | -4 | 2 | -24

Whole records as entered above. Order of values: MT1-MMP act inh, MT1-MMP act inh RFP, Env fusion inh
CCCCNC(=O)C[C@@H]1C[C@@]2(C(=O)OC)CCCCC=C2N(Cc2cccc3ccccc23)C1=O is entered as -13, -7, 24
C[C@H](NS(=O)(=O)c1ccccc1)C(=O)N1CCN(C(c2ccccc2)c2ccccc2)CC1 is entered as -4, 2, -24
CN(CCO)c1ccc2c(c1)OC[C@@H](Cc1ccccc1)NS2(=O)=O is entered as 1, 3, -29

Bioassay records (PubChem)

Some of the compounds tested; count on the stated rates, not on these rows.
